hNpr1 antagonist – blocks ANP-stimulated signaling of human Npr1 receptor | P16066 | HEK293 hNpr1 GloSensor cGMP, ANP-stimulated luminescence | Potency, µM (titrated, usually from 46.3 µM), for the others: top-dose activity change, negative = inhibition, most hits filed as inhibitors | 76,000 tested, 1.6% active; active = well fitted inhibition curve with a large enough effect; inconclusive = small, poorly fitted or top-dose-only effect; inactive = no such curve, though single readings can be large or run the other way;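 further: nearly all actives have a fitted effect of over 60% in size; nearly all hits also lower the signal before the agonist is added; a reference antagonist and vehicle were the controls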
Target sequence (P16066 whole entry, looked up): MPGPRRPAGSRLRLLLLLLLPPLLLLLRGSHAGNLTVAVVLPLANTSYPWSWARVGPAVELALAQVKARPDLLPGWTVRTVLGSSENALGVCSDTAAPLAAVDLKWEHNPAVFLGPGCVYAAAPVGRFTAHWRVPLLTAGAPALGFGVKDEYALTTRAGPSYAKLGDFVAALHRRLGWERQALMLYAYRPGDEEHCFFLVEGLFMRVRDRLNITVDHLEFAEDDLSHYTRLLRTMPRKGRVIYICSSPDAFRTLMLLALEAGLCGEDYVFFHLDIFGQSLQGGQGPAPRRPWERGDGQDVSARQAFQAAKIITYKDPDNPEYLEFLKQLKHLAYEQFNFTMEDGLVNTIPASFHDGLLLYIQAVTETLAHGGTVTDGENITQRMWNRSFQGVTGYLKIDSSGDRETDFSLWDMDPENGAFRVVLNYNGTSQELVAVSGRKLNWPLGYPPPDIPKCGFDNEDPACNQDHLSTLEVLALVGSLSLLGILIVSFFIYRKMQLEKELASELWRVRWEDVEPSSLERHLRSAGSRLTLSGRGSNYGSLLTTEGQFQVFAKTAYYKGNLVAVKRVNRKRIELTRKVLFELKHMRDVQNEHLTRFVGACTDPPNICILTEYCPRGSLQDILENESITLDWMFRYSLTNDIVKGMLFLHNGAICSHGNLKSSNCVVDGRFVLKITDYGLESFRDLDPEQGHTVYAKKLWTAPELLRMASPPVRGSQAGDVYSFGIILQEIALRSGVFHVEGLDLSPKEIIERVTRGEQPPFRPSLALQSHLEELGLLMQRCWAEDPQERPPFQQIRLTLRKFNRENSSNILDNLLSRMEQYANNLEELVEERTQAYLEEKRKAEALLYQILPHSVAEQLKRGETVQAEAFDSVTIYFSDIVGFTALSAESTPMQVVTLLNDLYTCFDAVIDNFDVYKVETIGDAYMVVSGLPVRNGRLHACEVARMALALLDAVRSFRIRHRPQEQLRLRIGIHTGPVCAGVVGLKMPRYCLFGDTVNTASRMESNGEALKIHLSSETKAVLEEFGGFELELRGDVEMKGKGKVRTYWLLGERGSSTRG
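Compound pre-incubated 30 min at room temperature on GloSensor-loaded HEK293 cells stably carrying hNpr1 and the pGS-40F cGMP biosensor. Stimulation uses hNppA at 0.1 nM final; luminescence is taken at baseline and 20 min post-agonist.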
* marks the source's active call; other numbers are inactive results; ? = inconclusive; [ ] = another dose, or the depositor's remark. On the % scale 0 is the no-effect control and ±100 the full control effect; potency means the concentration at half of the fitted maximal effect. The list is partial; the hit share may differ from the screen's.

mol | hNpr1 antagonist
CN1CCc2nc(N3CCOCC3)[nH]c(=O)c2CC1 | 9%
Cc1ccc(C(=O)N2CC(Oc3ccc(F)cc3C)C2)cc1 | -1%[70.6 µM]
O=C(C[C@H]1NC(=O)c2ccccc2NC1=O)NCCc1ccc(O)cc1 | 2%
COc1ccc(-c2cc3c(ccn3C)c(C(=O)NCCC(N)=O)n2)cc1OC | 0%[70.6 µM]
Cc1cccc(-n2nc(C)c(CCC(=O)N(C)C(C)C)c2Oc2ccccc2)c1 | -27%
COc1cccc(CC(=O)N2CCC(CC(=O)NCc3ccccc3)C2)c1 (stereo unspecified) | -3%
Cc1ccccc1C(=O)N1CCN(c2nc3ncccc3o2)CC1 | 2%[70.6 µM]
Cc1noc([C@H]2CCN(Cc3cc(F)cc(F)c3)C[C@H]2NC(=O)C2CC2)n1 | 1%
COCC(=O)N[C@@H]1CN(Cc2ccc(O)cc2)CC[C@@H]1CO | 4%
CCCCNC(=O)c1ccc2c(c1)N(C(=O)c1ccc(OC)cc1)CC2 | -13%
CNC(=O)Nc1ccc(C2(C(=O)NC(C)C)CCC2)cc1 | 1%
O=C1c2c(nc(CNCc3cccc(Cl)c3)n2Cc2ccccc2)NCCN1CCOc1ccccc1 | -29%
CN1C(=O)C(CC(=O)NCC2CCCCC2)Sc2ncccc21 (stereo unspecified) | -5%
CN(C)C(=O)c1cccnc1OC1CCN(S(=O)(=O)c2cccc(C(F)(F)F)c2)C1 (stereo unspecified) | 2%
O=C(COc1ccc(F)cc1)N1CCN(c2cc(-c3ccccc3)[nH]n2)CC1 | -8%
COc1ccc(NC(=O)N[C@H]2[C@H](O)[C@@H](Sc3ccccc3)[C@@H]3OC[C@H]2O3)cc1 | 3%[70.6 µM]
CN1C(=O)CC[C@]2(C(=O)NC3CC3)CCCC[C@@H]12 | -10%
O=S(=O)(c1cccc(F)c1)N1CCC(OC2CCN(Cc3ccccc3)CC2)CC1 | 0%
CNC(=O)C(C)N(C)C(=O)c1coc(COc2ccc3ccc(OC)cc3c2)n1 (stereo unspecified) | ?
COc1ccc(NC(=O)CCC2CCCN(C(=O)c3csc(C(C)=O)c3)C2)cc1Cl (stereo unspecified) | 3%
CCc1cc(N2CCC3(CCCN(C)C3=O)C2)nc(N2CCCC2)n1 (stereo unspecified) | -7%
CC(C)(C)c1ccc(C(=O)Nc2nc3c(s2)C[C@@H]2[C@](C)(CO)[C@H](O)CC[C@@]2(C)[C@@H]3CC(=O)NC2CC2)cc1 | 3%
O=C(NC(C(=O)N1CCCCC1)C1CCN(C(=O)c2cccs2)CC1)c1ccc2c(c1)OCO2 (stereo unspecified) | 0%
CC(C)CN1C[C@@H](C(=O)O)C[C@@H](C(=O)Nc2ccc(F)cc2)C1 | 6%
COc1ccc(C(=O)N2CCC(C(=O)N3CCCCCCNC(=O)CC3)CC2)c(OC)n1 | 1%

The list goes on:
mol | hNpr1 antagonist
CN(CCc1ccccn1)C(=O)COc1ccc(NC(=O)C2CC2)cn1 | 1%
Oc1ccccc1CNC[C@H]1O[C@H](Cc2cc(CN3CCCCC3)on2)CC[C@@H]1O | -1%[70.6 µM]
COc1ccc(CN2CC3(C2)NC(=O)c2ccccc2O3)cc1 | -3%[70.6 µM]
COc1ccc(OC)c(NC(=O)C2Cn3cccc3C(=O)N2C)c1 (stereo unspecified) | 0%
COc1ccc(N2CCN(C(=O)c3noc(-c4ccc(C)cc4)n3)CC2)cc1 | -21%
CN1CCC(N2CC[C@H](c3nc4ccc(C(F)(F)F)cc4[nH]3)C2)CC1 | -4%[70.6 µM]
CCN1C(=O)CCN(C(=O)c2cccc(C#N)c2)CC12CCOCC2 | 5%
Cc1cnc(CC2CCN(S(=O)(=O)Cc3ccccc3)C2)n1C(C)C (stereo unspecified) | -2%
CCn1cnnc1CC1CCN(C(=O)C2CC2)CC1 | 3%
O=C(CN1CC2CC(C1)[C@H]1CCCC(=O)N1C2)NCc1ccc(F)cc1F (stereo partly specified) | -4%
Cn1cc(CC(=O)N2CCCc3ncc(C(=O)NCc4ccccc4)cc32)c2ccccc21 | -16%[70.6 µM]
CCc1nc(-c2ccccc2)n2cc[nH]c(=O)c12 | 5%
Cn1cccc1C(=O)N1CCCCC1c1nc(-c2cnccn2)n[nH]1 (stereo unspecified) | -7%
CN(Cc1ccccc1C(F)(F)F)C(=O)Cc1ccccn1 | 13%[70.6 µM]
CC(C)c1noc(-c2cccn3c(CNC(=O)c4c(F)cccc4Cl)nnc23)n1 | 4%
CC(=O)N1CCN(C(=O)c2ccccc2N2CCOCC2)CC(O)C1 (stereo unspecified) | 5%
C[C@@H](NC(=O)c1cccnc1)c1c(-c2ccc(F)cc2)noc1C(=O)O | 4%[70.6 µM]
COCCC1(N(C)C)CCN(C(=O)C2CC2)CC1 | 1%
COCCOCC(=O)N1CCC2(CC1)CC(N(Cc1ccc(F)cc1)C1CC1)CCO2 (stereo unspecified) | -2%
CN(CCc1noc(C2CC2)n1)C(=O)[C@H]1CNC[C@@H](C(=O)N2CCCC2)C1 | -2%
O=C1N(Cc2ccccc2)C[C@H]2CN(Cc3cccs3)CCN12 | -1%[70.6 µM]
COC[C@@H]1CN(C(=O)c2occc2C)C[C@H]1c1nc(C)no1 | -2%
Cc1nn2c(c1-c1cccnc1N1CCOCC1)N(Cc1ccc3c(c1)CCO3)CCC2 | -19%[70.6 µM]
O=C1[C@@H]2C[C@@H](CN2C(=O)c2ccno2)Oc2ccccc2N1Cc1ccc(OC(F)(F)F)cc1 | 0%
C=CCN1CCN(C(=O)CCc2nc(C3CCCN3C(=O)NCC)no2)CC1 (stereo unspecified) | 5%

Compounds listed so far with a CF3 group (4):
mol | hNpr1 antagonist
CN(C)C(=O)c1cccnc1OC1CCN(S(=O)(=O)c2cccc(C(F)(F)F)c2)C1 (stereo unspecified) | 2%
CN1CCC(N2CC[C@H](c3nc4ccc(C(F)(F)F)cc4[nH]3)C2)CC1 | -4%[70.6 µM]
CN(Cc1ccccc1C(F)(F)F)C(=O)Cc1ccccn1 | 13%[70.6 µM]
O=C1[C@@H]2C[C@@H](CN2C(=O)c2ccno2)Oc2ccccc2N1Cc1ccc(OC(F)(F)F)cc1 | 0%

Further compounds.
mol | hNpr1 antagonist
COc1cccc(NC(=O)c2cc3c(N(C)Cc4ccccc4)nc(C)cn3n2)c1 | 4%
Cc1ccc(C2Cn3nnc(C(=O)N4CCC(C(=O)NC(C)C)CC4)c3CO2)cc1 (stereo unspecified) | -10%
N#Cc1cccc(CN2CCOC[C@H](O)C2)c1 | 1%[70.6 µM]
COc1cccc(-c2cc(-c3ccccc3OC)nc3c(C)noc23)c1 | 11%[70.6 µM]
CC[C@H]1CN(C(=O)N2CCOCC2)CC[C@H]1CC(=O)NCCOC | 2%[70.6 µM]
O=C1C(N2CCN(S(=O)(=O)Cc3cccc(Cl)c3)CC2)CCN1Cc1cccnc1 (stereo unspecified) | 2%
CO[C@H]1C(=O)N(C(C)C)[C@H]1C1CCN(Cc2cccc(C#N)c2)CC1 | -2%
O=C1CC2(CCN([S+](=O)([O-])c3cccc(C(F)(F)F)c3)CC2)Oc2ccccc2N1c1ccccc1 | -1%
O=C(NCCc1ccncc1)c1coc(COc2ccc(F)cc2Cl)n1 | -10%
CN(C)C[C@@H]1CN(Cc2ccccn2)C[C@H]1NC(=O)c1c[nH]c2ccccc12 | -3%
Cc1nc2ccccc2n1Cc1cn([C@@H]2CN[C@H](C(=O)O)C2)nn1 | -5%
COc1cc(OC)cc(C(=O)N2CCC3(C2)NC(=O)N(Cc2ccc(Cl)cc2)C3=O)c1 (stereo unspecified) | 5%
CCOc1ccccc1C1NC(=O)N(CC(=O)Nc2cccc(C(F)(F)F)c2)C2=C1C(=O)OC2 (stereo unspecified) | ?
O=C(NCCCc1ccccn1)C1CC(=O)N(C2CC2)C1 (stereo unspecified) | 4%
CC(C)c1noc(-c2cn(C3CCN(C(=O)c4ccc(F)cc4Cl)C3)nn2)n1 (stereo unspecified) | ?
COc1ccc(N2Cc3c(NC4CC4)ncnc3N(C)CC2=O)cc1 | -12%
CCn1nccc1C(=O)N1CCCn2ccnc2C1c1ccccc1 (stereo unspecified) | -11%
CC(C)(C)OC(=O)N1CCCC(n2c(=O)[nH]c3cccnc32)C1 (stereo unspecified) | 22%[70.6 µM]
O=C(c1nnc(CNC2CCOCC2)n1Cc1ccccc1)N1CCC[C@@H]1c1ccc(Br)cc1 | 1%
COc1ccc(C(=O)N2CCC(n3cc(-c4nc(C5CC5)no4)nn3)C2)cc1 (stereo unspecified) | -14%
O=C(NCCC1CCN(Cc2ccccc2)CC1)C1CNCCO1 (stereo unspecified) | 2%
O=C(NC1CC(=O)N(CCc2cccc(Cl)c2)C1)c1ccsc1 (stereo unspecified) | 0%
CC(C)N1C[C@H](O)C[C@H]1c1nnc2n1CCN(C(=O)C1CCOCC1)CC2 | -15%
O=C(NCc1ccsc1)c1nc(-c2ccc(Cl)cc2)c2cnccn12 | 12%
CN1CCN(C(=O)N2CCC(c3nccn3CC3CC3)CC2)CC1 | 0%

Next section
mol | hNpr1 antagonist
O=C(O)CCn1ncc2cc(OCC3CCN(C(=O)C4CC4)CC3)ccc21 | 8%[70.6 µM]
CCOC(=O)C1(Cc2cccc(Cl)c2)CCCN(C(=O)c2csc(C(C)=O)c2)C1 (stereo unspecified) | -17%
Cc1nc2scc(CC(=O)Nc3ccc(F)cc3)n2c(=O)c1-c1cc(C)n(-c2ccccc2F)n1 | -11%
Cc1nc(-c2c3n(c(=O)n(Cc4cc(F)ccc4F)c2=O)CCCCC3)no1 | 16%
CC(C)(C)C(=O)N1C[C@H]2OC(=O)N(CCc3cccc(Cl)c3)[C@H]2C1 | -1%
CC(C)Cc1cc(CNc2nccc(-c3cc(C(=O)O)ccn3)n2)no1 | 0%
CC(=O)N[C@H]1CN(c2cncc(C(=O)N3CCCC3)n2)C[C@@H]1C1CC1 | 0%
COc1ccc(C(=O)NC2CCCN(c3nc4ncccc4o3)C2)cc1 (stereo unspecified) | 0%
N#Cc1cccc(CN2CCCC2=O)c1 | 1%
CNC(=O)[C@@H]1CN(S(C)(=O)=O)C[C@H]1COC | 2%
Cc1cc(C)cc(NC(=O)Cn2c(N3CCCCC3)nc(C)c(C)c2=O)c1 | -3%
Cc1cc(C)cc(C(=O)NCc2nnc3c(-c4nc(C5CC5)no4)cccn23)c1 | -2%
COc1ccc(C2NC(=O)N(Cc3nc(C4CCCCC4)no3)C3=C2C(=O)OC3)cc1 (stereo unspecified) | ?
CCn1ccc(C(=O)N2CCC3(CC2)NCCc2c3[nH]c3ccc(OC)cc23)n1 | 3%
O=S(=O)(N[C@@H]1CCOC[C@H]1Oc1ccccn1)c1ccc(Cl)s1 | 0%
CC(C)c1nc2c(c(-c3ccc(Cl)cc3)n1)CN([S+](=O)([O-])c1cccs1)CC2 | -2%
N#Cc1ccc(C(=O)N2CCN(S(=O)(=O)c3ccc(F)cc3)[C@@H](C(=O)N[C@H]3CCCNC3=O)C2)cc1 | 7%
CCOCc1nc(C2CCCN2S(=O)(=O)c2cccs2)no1 (stereo unspecified) | 0%
Cc1oc(-c2cccc(C(F)(F)F)c2)nc1CN1CCCC(CO)C1 (stereo unspecified) | 2%
COc1ccc2[nH]c(C(=O)N3C[C@@H](Oc4ccccc4)C[C@H]3C(=O)N3CCOCC3)cc2c1 | 6%
CCOC1CCN(Cc2ccc(C(=O)Nc3c(C)cccc3C)cc2)CC1 | 3%
O=C(NCc1cccnc1)[C@@H]1C[C@@H](O)CN1C1CCN(C(=O)CCc2ccccc2)CC1 | 3%
O=C(NCC1CCOCC1)c1cnccn1 | 4%
O=C1CCC2(CCN1Cc1ccccc1)CCN(S(=O)(=O)c1cccs1)CC2 | ?
O=C(Nc1ccc2[nH]ccc2c1)C1=NO[C@@H]2CN(Cc3ccc(F)cc3)C[C@H]12 | 5%[70.6 µM]

The closing four compounds of the part before lead into the next.
mol | hNpr1 antagonist
O=C(NCc1cccnc1)[C@@H]1C[C@@H](O)CN1C1CCN(C(=O)CCc2ccccc2)CC1 | 3%
O=C(NCC1CCOCC1)c1cnccn1 | 4%
O=C1CCC2(CCN1Cc1ccccc1)CCN(S(=O)(=O)c1cccs1)CC2 | ?
O=C(Nc1ccc2[nH]ccc2c1)C1=NO[C@@H]2CN(Cc3ccc(F)cc3)C[C@H]12 | 5%[70.6 µM]
CC(C)CCNC(=O)c1ccc(CN2C(=O)NC3(CCOCC3)C2=O)cc1 | 0%
CSCC(=O)N[C@H]1CN(CCCn2nc(C)cc2C)C[C@@H]1C1CC1 | 0%
COc1cc2c(cc1OC)C(CNC(=O)C1CC1)N(C(=O)Nc1ccccc1)CC2 (stereo unspecified) | 6%
CC1=C[C@@H](CNCc2cccnc2)[C@H](C(C)C)C[C@H]1Cc1nnc(-c2ccncc2)o1 | -15%[70.6 µM]
COc1ccc(CN2CC(Oc3ccc(F)c(C)c3)C2)cc1 | -5%[70.6 µM]
CCOc1ccccc1C(=O)N1CCc2nn(Cc3ccccc3)c(=O)n2CC1 | 13%
CNC(=O)[C@@H]1C[C@@H](n2cc(CNC(=O)Nc3cc(F)ccc3F)nn2)CN1 | 6%
COCCN1CCCCCC(O)c2cc(C(=O)NCc3ccc(F)cc3)ccc21 (stereo unspecified) | -2%
CCC(=O)N1CCC2(CC1)CC(C(=O)N1CCOCC1)N(C)C2 (stereo unspecified) | -2%
CCCN(CC1CCOC1)S(=O)(=O)c1ccc(Cl)cc1C (stereo unspecified) | -2%
N#Cc1ccc(CN2CCn3c(nnc3-c3ccccc3)C2)cc1 | 18%[70.6 µM]
COc1cccc(C(=O)N2CC(F)(F)C[C@H]2c2nc(C)no2)c1OC | -12%
